Bioassay records as filed in PubChem.
TRPML1 inh: inhibitors of human TRPML1 channel | 0.02% of 390,000 active | TRPML1-inducible cells, Ca2+ dye fluorescence, FDSS; active compounds read low; inhibition of EC80 agonist-evoked calcium signal | activity change, negative = inhibition, % (test concentration not listed); in the data active means activity change below about -50%; inconclusive means about -30% to -50%; inactive means above about -30%;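 note: stimulus is agonist 54-4 at its EC80 concentration; % is set by controls: 0 for no effect and ±100 for the full control effect; compound concentration not given in the record; the text of the record puts the active cut at -80%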
Target sequence (Q9GZU1 whole entry, looked up): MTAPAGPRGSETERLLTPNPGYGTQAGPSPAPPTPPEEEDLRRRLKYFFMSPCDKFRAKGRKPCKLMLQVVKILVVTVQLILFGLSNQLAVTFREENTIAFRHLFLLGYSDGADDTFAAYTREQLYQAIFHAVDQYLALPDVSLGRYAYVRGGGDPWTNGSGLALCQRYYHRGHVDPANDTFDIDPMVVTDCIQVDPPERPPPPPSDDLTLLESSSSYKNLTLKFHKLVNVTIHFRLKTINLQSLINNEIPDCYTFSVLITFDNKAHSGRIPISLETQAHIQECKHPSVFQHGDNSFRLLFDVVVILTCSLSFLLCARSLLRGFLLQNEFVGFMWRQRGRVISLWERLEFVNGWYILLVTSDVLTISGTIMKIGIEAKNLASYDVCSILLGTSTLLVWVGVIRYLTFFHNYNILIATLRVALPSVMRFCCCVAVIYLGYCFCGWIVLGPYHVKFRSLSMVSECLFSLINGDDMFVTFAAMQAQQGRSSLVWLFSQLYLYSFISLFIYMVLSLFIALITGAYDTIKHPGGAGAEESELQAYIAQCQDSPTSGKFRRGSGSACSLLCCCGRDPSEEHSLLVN
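Tet-induced TRPML1-DL cells loaded with Ca8 no-wash calcium dye were read kinetically on FDSS. Compound addition was followed by EC80 agonist 54-4 (4 uM final); inhibition was read over 110 s.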
CtBP-E1A inh: CtBP/E1A binding inhibition | AlphaScreen GST-E1A/His-CtBP binding, 1536-well; active compounds read low; control for the full effect not named in the record | activity change, % (test concentration not listed) | 0.49% of 340,000 active; in the data active means activity change below about -65%; inconclusive means about -30% to -65%; inactive means above about -30%; note: % is set by controls: 0 for no effect and ±100 for the full control effect
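In 5 uL wells, 23 nL compound meets equimolar GST-E1A and His-CtBP (5X stock 125 nM each) for 2 h, 37 °C. Beads (5X, 50 ug/mL) then 1 h, 37 °C, dark.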
PINK1 expr mod: changes PINK1 expression. PINK1 immunofluorescence, high-content cytometry, 24 h. Potency, µM (series often up to 76.6 µM), inactives show at the top dose activation (PINK1 increase), actives largely listed as activators. 0.2% of 410,000 active; active = well fitted activation curve with a large enough effect; inconclusive = small, poorly fitted or top-dose-only effect; inactive = flat fitted curve, though single readings scatter; cell line not stated here;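 note: potency is the fitted concentration of half-maximal effect; % of control where 0% means no effect; nearly all actives have a fitted effect of over 65% in size; a mitochondrial uncoupler was the plate control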
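Stable cell line, 250 cells/well, 12 h attachment; compounds pinned at 5 concentrations, 24 h; CCCP control. Fixed with nuclear dye, primary antibodies 12 h at 10 degrees C, secondary plus cell stain; laser-scanning cytometer read.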
D2 agonist: human D2 receptor agonism in beta-arrestin assay; P14416; 0.084% of 360,000 active; activation, % (concentration not given with the values); DiscoveRx PathHunter D2 beta-arrestin, luminescence, 90 min; 100% = 57 uM dopamine signal; in the data active = activation above about 40%; inconclusive = about 15% to 40%; inactive = below about 15%; note: compound concentration not given in the record; the text of the record calls up to 30% inactive
Target sequence (P14416 whole entry, looked up): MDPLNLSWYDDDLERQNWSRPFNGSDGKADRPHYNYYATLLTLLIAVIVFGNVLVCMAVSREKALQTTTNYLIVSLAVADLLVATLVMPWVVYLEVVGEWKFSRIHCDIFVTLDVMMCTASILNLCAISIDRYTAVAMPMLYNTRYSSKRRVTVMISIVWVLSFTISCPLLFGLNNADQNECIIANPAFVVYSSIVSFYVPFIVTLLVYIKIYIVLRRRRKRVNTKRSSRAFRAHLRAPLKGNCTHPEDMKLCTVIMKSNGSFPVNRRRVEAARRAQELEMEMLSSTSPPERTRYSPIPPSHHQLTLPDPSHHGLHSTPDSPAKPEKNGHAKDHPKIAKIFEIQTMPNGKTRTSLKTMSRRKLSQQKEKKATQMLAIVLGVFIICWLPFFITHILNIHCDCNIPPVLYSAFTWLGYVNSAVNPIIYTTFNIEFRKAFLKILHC
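DiscoveRx PathHunter D2 beta-arrestin cells (2,100/well) attached overnight, then compound-stimulated 90 min at 37 C in HBSS/10 mM HEPES/0.1% Tween-20 buffer; beta-galactosidase complementation read by luminescence after 1 h at ambient temperature. Dopamine 57 uM final (EC100) as control.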
TRPML1 agonist: agonists of human TRPML1 channel; Q9GZU1; TRPML1-expressing cells, Ca2+ dye fluorescence, FDSS; host cell line not named in the record; reference of the full effect not given here; activation, % (no concentration beside the values); 0.12% of 410,000 active; AID 624414; in the data active = activation above about 50%; inconclusive = about 30% to 50%; inactive = below about 30%; note: 0% is about no effect; the text of the record puts the active cut at 80%
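TRPML1-DL cells, Tet-induced overnight (~16 h, 37 degrees C), loaded 45-90 min at room temperature with Ca8 no-wash calcium dye plus quencher. FDSS fluorescence: 10 s baseline, compound pin-transfer, 110 s agonist read, then EC80 54-4 (4uM final) and 110 s antagonist read.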
Six1-Eya2 blk: Six1/Eya2 interaction inhibition. activity change, % (concentration not given with the values). 0.56% of 360,000 active. AlphaScreen GST-Six1/His-Eya2 binding, biochemical; active compounds read low; control for the full effect not named in the record; in the data active = activity change below about -65%; inconclusive = about -30% to -65%; inactive = above about -30%; note: % is set by controls: 0 for no effect and ±100 for the full control effect
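AlphaScreen with GST-Six1 and His-Eya2 (5X mix: 250 nM and 500 nM), glutathione donor and nickel acceptor beads; buffer 50 mM Tris pH 8.0, 300 mM NaCl, 1 mM TCEP; 1 h at 37 C in the dark.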
Active calls of the source: *; ? = inconclusive; · = not tested or not shown; [ ] = dose if it differs, or a comment.

1) Cc1cc(C)cc(Oc2c(C(F)(F)F)oc3c(CN4CCCC(C)C4)c(O)ccc3c2=O)c1 (stereo not drawn)
2) O=C(Nc1nc(-c2ccc(Cl)s2)cs1)c1ccncc1
3) O=C(Nc1cccc2cccnc12)C(F)(F)F
4) COc1ccc(CNC(=O)C2CCN(S(=O)(=O)c3ccc4c(c3)CC(C)N4C(=O)C3CC3)CC2)cc1 (stereo not drawn)
5) COC(=O)c1cc(C(=O)OCC(=O)NC2CCCCCCC2)cc([N+](=O)[O-])c1
6) Fc1ccc(-c2cc(C(F)(F)F)nc(NCC3CCCO3)n2)cc1 (stereo not drawn)
7) N#CCC(=O)Nc1ccc(C(=O)OCc2ccccc2Oc2ccccc2)cc1
8) CC1(C)OC(C)(C)/C(=C/Nc2ccccc2)C1=O
9) O=C(Cc1ccc(Br)cc1)Nc1ncc([N+](=O)[O-])s1
10) CC(=O)N(C)/C=C1\Sc2ccccc2C1=O

Screen / compound no. | 1 | 2 | 3 | 4 | 5 | 6 | 7 | 8 | 9 | 10
TRPML1 inh | 10.2 | 31.9 | -10.4 | 4.0 | 14.6 | -2.2 | -0.5 | 3.4 | 2.8 | 14.9
CtBP-E1A inh | · | 5.2 | · | -5.0 | -17.0 | 40.7 | -1.6 | -7.1 | · | -7.1
PINK1 expr mod | 2.2% | -3.9%[38.3 µM] | 1.2% | -0.2% | 3.2% | 16.4% | 10.1% | -3.1% | 25.1µM* | 1.4%
D2 agonist | · | 7.6 | · | 2.2 | -0.2 | -8.2 | 0.3 | 2.3 | 3.9 | 3.2
TRPML1 agonist | 2.5 | -0.1 | 1.0 | -1.1 | 3.4 | 0.8 | 0.4 | 0.1 | 0.1 | -0.5
Six1-Eya2 blk | · | 6.5 | · | -1.3 | 0.7 | 34.7 | 33.8 | -0.9 | 1.4 | -8.4

11) Cc1ccc(-c2nc(CS(=O)CC(=O)O)c(C)o2)cc1 (stereo not drawn)
12) COc1cc(OC)cc(C(=O)NC(=S)Nc2cccnc2)c1
13) CCOC(=O)CNC(=O)CSc1nnc(-c2ccccc2)n1Cc1ccco1
14) CCOC(=O)c1c(S(=O)(=O)NCC(=O)Nc2ccc(C)c(Cl)c2)c(C)n(C)c1C
15) O=C(NCC(c1ccco1)N1CCN(c2ccc(F)cc2)CC1)C(=O)NC1CC1 (stereo not drawn)
16) O=C(Nc1ccc(N2CCOCC2)c(Cl)c1)c1ccc2c(c1)OCCO2
17) CC(C)(C)c1cc(C(=O)NNC(=O)c2ccc(Cl)cc2)no1
18) COc1ccc2c(c1)OC[C@H]1[C@@H]2N2C(=O)[C@@H](C)NC(=O)[C@@]2(C)[C@H]1c1ccccc1
19) O=C(COC(=O)CC1CCCCC1)Nc1c(Cl)cccc1Cl
20) O=C(c1ccco1)N1CCN(c2cc(=O)n(C3CCCCC3)c(=O)[nH]2)CC1

Screen / compound no. | 11 | 12 | 13 | 14 | 15 | 16 | 17 | 18 | 19 | 20
TRPML1 inh | 1.9 | -13.2 | -6.8 | 6.0 | 17.8 | 21.8 | -6.2 | -2.5 | 15.9 | 15.3
CtBP-E1A inh | · | 4.2 | 2.6 | · | -5.9 | -7.7 | 7.3 | 5.5 | 14.7 | 1.6
PINK1 expr mod | 0.7% | 0.4% | -1.0% | 2.6% | 4.7% | 0.0% | 1.1% | -1.2% | 1.7% | 0.6%
D2 agonist | · | -6.6 | -2.7 | · | -1.1 | 5.5 | -1.6 | -0.5 | -3.4 | -0.6
TRPML1 agonist | -0.4 | -0.2 | 1.9 | 3.9 | 0.9 | -0.4 | 0.3 | -1.2 | 1.3 | 0.3
Six1-Eya2 blk | · | 7.8 | -4.4 | · | 4.5 | 5.2 | 11.2 | 7.4 | 6.2 | 1.2

21) Cc1csc(Nc2nc(N)c(C(=O)Nc3ccccc3)o2)n1
22) CCCCC(=O)N1CCc2cc(OC)c(OC)cc2C1COc1ccc(OC)cc1 (stereo not drawn)
23) Cc1ccccc1NC(=S)NCCc1ccccn1
24) CC(=O)Nc1ccc(OS(=O)(=O)c2ccccc2C)cc1
25) Cc1ccc(COc2ccc(S(=O)(=O)N3CCCC3)cc2C(N)=O)cc1
26) Cc1cc(C)n(C(=O)COc2c(C)cccc2C)n1
27) O=C(Nc1nc(-c2ccccn2)cs1)c1cc(Cl)ccc1[N+](=O)[O-]
28) CC1CCN(S(=O)(=O)N2CCC(C(=O)NC(C)c3ccccc3)CC2)CC1 (stereo not drawn)
29) CC(NCC(=O)Nc1cc(S(=O)(=O)N2CCCCCC2)ccc1Cl)c1ccccc1 (stereo not drawn)
30) CCOc1c(Br)cc(C(=O)NCCCn2ccnc2)cc1OC

Screen / compound no. | 21 | 22 | 23 | 24 | 25 | 26 | 27 | 28 | 29 | 30
TRPML1 inh | 13.4 | 19.9 | -21.7 | 38.9 | 1.8 | -0.5 | -3.7 | 1.2 | 39.4 | -1.6
CtBP-E1A inh | -14.3 | · | -6.4 | -6.6 | -20.5 | 6.1 | ? | 5.0 | 13.9 | 0.5
PINK1 expr mod | 0.0% | 6.8% | -0.2% | 1.5% | 5.7% | -0.2% | 1.6% | -0.6% | 1.9% | -1.5%
D2 agonist | -2.2 | · | -0.3 | 4.6 | 0.3 | -3.2 | -1.5 | -3.6 | -5.6 | -0.2
TRPML1 agonist | 3.5 | 3.9 | 0.2 | -0.1 | 1.3 | -1.1 | 0.0 | -0.6 | 0.0 | 1.5
Six1-Eya2 blk | -6.4 | · | 0.6 | 2.9 | -1.1 | 6.4 | -91.0* | 4.9 | -0.6 | 2.6

3 entries out of the list, ordered by number of heavy atoms, lowest first:
26) Cc1cc(C)n(C(=O)COc2c(C)cccc2C)n1
27) O=C(Nc1nc(-c2ccccn2)cs1)c1cc(Cl)ccc1[N+](=O)[O-]
29) CC(NCC(=O)Nc1cc(S(=O)(=O)N2CCCCCC2)ccc1Cl)c1ccccc1 (stereo not drawn)

Screen / compound no. | 26 | 27 | 29
TRPML1 inh | -0.5 | -3.7 | 39.4
CtBP-E1A inh | 6.1 | ? | 13.9
PINK1 expr mod | -0.2% | 1.6% | 1.9%
D2 agonist | -3.2 | -1.5 | -5.6
TRPML1 agonist | -1.1 | 0.0 | 0.0
Six1-Eya2 blk | 6.4 | -91.0* | -0.6

Additional results:
31) O=C(Nc1ccccc1)Nc1ccc(Br)cc1F
32) Cn1c(=O)c2c(nc(CN3CCN(c4ccccc4F)CC3)n2CCN2CCOCC2)n(C)c1=O
33) COc1ccc(NC(=O)C2CCCN(S(C)(=O)=O)C2)cc1 (stereo not drawn)
34) Cn1c(C(=O)NCCc2ccccc2)cc(=O)n(C)c1=O
35) Cc1ccc(S(=O)(=O)N/N=C2\C(=O)C3(C)CCC2C3(C)C)cc1 (stereo not drawn)
36) COc1ccc2c(C)c(CCC(=O)NC3CC3)c(=O)oc2c1
37) CCOc1cccc(N(C(=O)Cc2cccs2)C(C(=O)NC2CCCCC2)c2cccn2C)c1 (stereo not drawn)
38) CC(C)CC(NC(N)=O)C(=O)OCC(=O)N(Cc1ccccc1)Cc1ccccc1 (stereo not drawn)
39) COC(=O)CC1C(=O)NCCN1C(=O)OC(C)(C)C (stereo not drawn)
40) CC1CCN(C(=O)CSc2nnc(-c3ccccc3F)o2)CC1

Screen / compound no. | 31 | 32 | 33 | 34 | 35 | 36 | 37 | 38 | 39 | 40
TRPML1 inh | -11.3 | 8.9 | -2.1 | -8.5 | 20.5 | · | 19.2 | -1.3 | -6.9 | 12.4
CtBP-E1A inh | -2.8 | 1.3 | 7.6 | 5.9 | -9.7 | 1.2 | 4.1 | 0.0 | 20.8 | 5.3
PINK1 expr mod | 13.3% | -1.2% | 1.1% | 0.4% | 0.5% | 0.3% | 6.7%[38.3 µM] | 2.6% | -0.4% | 1.4%
D2 agonist | -3.3 | -1.5 | -0.1 | -5.1 | -3.9 | 6.2 | -1.5 | -1.8 | -0.7 | -1.5
TRPML1 agonist | 0.1 | -1.4 | -0.1 | -0.4 | 0.3 | · | 3.4 | -0.8 | -0.2 | 2.6
Six1-Eya2 blk | -4.2 | -1.4 | -1.6 | 8.7 | 4.1 | -0.1 | -4.0 | 3.8 | 2.5 | 8.0

41) CC(=O)n1c(C=Nc2ccccc2)c(O)c2ccccc21
42) CCC(CO)Oc1cc(NCc2cccc(C)c2)c2ncn(C(C)C)c2c1 (stereo not drawn)
43) COc1cccc(OCC(=O)NNC(=O)C(=O)Nc2ccc(OC)cc2OC)c1
44) CCOC(=O)Cn1cnc2sc(C(=O)OC)c(C)c2c1=O
45) COc1ccc(Nc2nnc(-c3cc4cc(Cl)ccc4oc3=O)s2)cc1
46) CC(C)c1ccc2c(c1)c(SC(C)(C)C)c(CC(C)(C)C(=O)O)n2Cc1ccc(Cl)cc1
47) COc1ccc(C(=O)Nc2cccc3c2CCCC3)cc1
48) CCN(CC)C(=O)CC1(c2ccccc2OC)CCOC(C(C)C)C1 (stereo not drawn)
49) CN(CC(=O)OCC(=O)NCc1ccccc1)S(=O)(=O)c1ccc(Cl)cc1
50) COc1ccccc1CNC(=O)c1ccc2c(c1)CCN2S(=O)(=O)c1ccccc1

Screen / compound no. | 41 | 42 | 43 | 44 | 45 | 46 | 47 | 48 | 49 | 50
TRPML1 inh | -12.8 | 28.9 | -8.3 | 0.5 | -18.0 | -1.9 | 38.2 | 10.9 | -8.2 | -7.2
CtBP-E1A inh | 4.9 | -12.3 | -6.9 | 3.5 | · | 2.8 | 9.3 | 10.1 | 5.2 | ·
PINK1 expr mod | 1.8% | 0.1% | 7.7% | -1.6% | -1.1% | 19.6% | 14.2% | -1.8% | 0.7% | 2.4%
D2 agonist | -0.6 | 6.4 | -6.0 | 1.0 | · | -2.1 | 0.9 | -2.9 | -2.4 | ·
TRPML1 agonist | 3.9 | -0.2 | 0.7 | 2.5 | 1.3 | 0.8 | 0.2 | 1.2 | -0.9 | 1.1
Six1-Eya2 blk | 12.2 | -13.2 | -7.4 | 3.3 | · | -13.5 | 0.1 | 0.5 | 3.7 | ·

Records 41–45 of the list above:
41) CC(=O)n1c(C=Nc2ccccc2)c(O)c2ccccc21
42) CCC(CO)Oc1cc(NCc2cccc(C)c2)c2ncn(C(C)C)c2c1 (stereo not drawn)
43) COc1cccc(OCC(=O)NNC(=O)C(=O)Nc2ccc(OC)cc2OC)c1
44) CCOC(=O)Cn1cnc2sc(C(=O)OC)c(C)c2c1=O
45) COc1ccc(Nc2nnc(-c3cc4cc(Cl)ccc4oc3=O)s2)cc1

Screen / compound no. | 41 | 42 | 43 | 44 | 45
TRPML1 inh | -12.8 | 28.9 | -8.3 | 0.5 | -18.0
CtBP-E1A inh | 4.9 | -12.3 | -6.9 | 3.5 | ·
PINK1 expr mod | 1.8% | 0.1% | 7.7% | -1.6% | -1.1%
D2 agonist | -0.6 | 6.4 | -6.0 | 1.0 | ·
TRPML1 agonist | 3.9 | -0.2 | 0.7 | 2.5 | 1.3
Six1-Eya2 blk | 12.2 | -13.2 | -7.4 | 3.3 | ·
